Bioassay records: PubChem BioAssay, ICCB-Longwood Screening Facility, Harvard Medical School
Vaccinia pol inh: blocks vaccinia virus processive DNA synthesis. in vitro processive DNA synthesis, absorbance read-out; stronger effect = lower value; some inactives read as strong as hits. normalized absorbance, % (no concentration beside the values). 46,000 compounds, 0.94% hits. AID 493162;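 active = replicate mean up to 90% and picked by the depositor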;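 note: 100% = median of the test wells of a plate; 100 nL library stock went into each well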
* hit, by the source's call.

SMILES | Vaccinia pol inh
O=C(Cc1ccccc1O)c1ccccc1 | 103
O=C(CSc1ccccc1O)N1CCOCC1 | 100
CCN1C(=S)NC2c3cc(C)ccc3OC13CCCC23 (stereo unspecified) | 101
COc1ccccc1OC(=O)NC(C)C | 73
COc1ccc(S(=O)(=O)NC(CC(=O)N2CCC3(CC2)OCCO3)c2ccco2)cc1 (stereo unspecified) | 91
N#CC(c1cccs1)c1ncc(C(F)(F)F)cc1Cl (stereo unspecified) | 91
FC(F)(F)Oc1ccc(N=Cc2c(Cl)nc3sccn23)cc1 | 113
CN(C)C(CC(=O)Nc1ccc(O)cc1)C(=O)O (stereo unspecified) | 96
CCN(CC)c1n[nH]nc1-c1cccc(Cl)c1 | 100
CCOC(=O)C1=C(N)Oc2n[nH]c(C)c2C1c1cccs1 (stereo unspecified) | 100
CC(C)CN(CC(C)C)S(=O)(=O)c1ccc(Br)s1 | 103
CC1=NN(c2ccccc2)C(C2=C(C)CCCC2(C)C)C1 (stereo unspecified) | 100
Cc1cc2ccccc2n1CCNC(=O)C1CC1 | 94
CC1(C)CC(=O)C2=C(C1)Nc1cc3c(cc1C2c1ccc(Cl)cc1)OCO3 (stereo unspecified) | 103
Nc1c(-c2ccccc2)nc2ccccn12 | 100
Cn1cccc1C=NN1CCN(C2c3ccccc3-c3ccccc32)CC1 | 100
CCCn1c(CCNC(=O)c2ccccc2)nc2ccccc21 | 98
O=C(O)c1ccccc1C(=O)c1ccc(-c2ccccc2)cc1 | 91
O=C(Nc1ccc(S(=O)(=O)N2CCCC2)cc1)c1ccc(COc2ccc3c(c2)CCC3)cc1 | 101
COC(=O)C(C)Oc1cc(C)cc2oc(=O)cc(-c3ccccc3)c12 (stereo unspecified) | 79
Cc1nn(-c2ccccc2)c(Cl)c1/C=C1\C(=O)N(C)c2ccccc21 | 94
CN1C(=O)CS(=O)c2ccc(C(=O)NC3CC3)cc21 (stereo unspecified) | 103
Clc1ccc(-c2cnc3n2CCC3)cc1Cl | 100
COC(=O)CSc1nc(-c2ccccc2)c(-c2ccccc2)o1 | 94
O=C(c1ccccc1C(=O)N(c1ccccc1)c1ccccc1)N1CCCCC1 | 100
CC(C)(C)c1ccc(O)c(C(=O)Oc2ccccc2)c1 | 101
CC(=O)NC(=O)c1cc2ccccc2oc1=Nc1ccccc1 | 100
O=C(COc1ccc2ccc(=O)oc2c1)NC1CC1 | 97
COc1ccc2ccccc2c1C=Nc1cccc(CO)c1 | 100
O=C(Nc1cccc(NC(=O)C2CC2)c1)C1CC1 | 100
CC1CCCCN1S(=O)(=O)c1ccc2c(c1)oc(=O)n2C (stereo unspecified) | 105
COc1ccc(/C=C/C(=O)Nc2ccccc2C(F)(F)F)cc1 | 106
CN1/C(=C(/O)c2ccccc2)C(=O)c2ccccc2S1(=O)=O | 100
Cn1c(=NC(=O)c2cc(-c3ccccc3)nc3ccccc23)sc2cc(S(C)(=O)=O)ccc21 | 100
Cc1nn(CC(=O)NCc2ccc3c(c2)OCO3)c(=O)c2c1sc1ccccc12 | 101
CCC(C)N(Cc1cn(CC)c2ccccc12)C(=S)Nc1ccc(C)cc1 (stereo unspecified) | 102
O=C(Cc1cccc2ccccc12)NCCOc1ccccc1 | 92
COC(CNS(=O)(=O)c1cccc2cccnc12)OC | 101
Cc1ccsc1C=Nc1ccc(OC(F)(F)F)cc1 | 109
Cn1c(SCC(=O)NC2CCCC2)nnc1-c1c[nH]c2ccccc12 | 102
CC1(C)CC(=O)C(=Cc2ccc3c(c2)OCCO3)C(=O)C1 | 101
CCc1nc2sc3c(c2c2nncn12)CCC3 | 100
CCC(C)NC(=O)c1ccc2nc(-c3cccs3)c(-c3cccs3)nc2c1 (stereo unspecified) | 99
CN(C)c1ccc(C=NCC2CCCN3CCCCC23)cc1 (stereo unspecified) | 100
Cc1cc(Cl)cc2sc(NC(=O)CCCCl)nc12 | 86
O=C(CSc1nc2c(c(=O)n1-c1ccccc1)SCC2)c1ccccc1 | 100
CCCc1nc2c(o1)NC(N)=C(C#N)C2c1cnn(-c2ccccc2)c1C (stereo unspecified) | 92
O=C(O)c1ccccc1C(=O)Nc1cccc2ncccc12 | 99
N=c1c(S(=O)(=O)c2ccccc2)cc2c(=O)n3ccccc3nc2n1Cc1ccco1 | 101
Cc1cc(F)ccc1NC(=O)c1cc2sccc2n1Cc1ccc(Cl)cc1 | 103
[O-]/[N+](=C\c1cccc(Br)c1)c1ccccc1 | 102
C=CCn1c(CNC(=O)Cc2ccccc2)nc2ccccc21 | 96
N#CC1(C#N)[C@H](c2ccoc2)[C@@H](C(=O)Oc2ccccc2)N2c3ccccc3C=C[C@@H]21 | 101
CSc1nc2ccc(NC(=O)c3cccc(Cl)c3)cc2s1 | 96
O=C(O)c1ccc(NS(=O)(=O)c2cc3c4c(cccc4c2)C(=O)NC3=O)cc1 | 90
O=C(NC(CO)c1ccccc1)c1ccc(Cl)cc1 (stereo unspecified) | 78
CCOC(=O)c1c(C)nc2c(c1-c1ccccc1)C(=O)CC(C)(C)C2 | 107
O=C(Cc1cccc2ccccc12)NCCCN1CCOCC1 | 101
NC(=O)C1CCN(C(=O)Nc2csc3ccccc23)CC1 | 103
Cc1nc(CCNC(=O)Cc2ccccc2)cs1 | 100

Following part
SMILES | Vaccinia pol inh
Cc1cc(-c2ccco2)n(-c2ccccc2)n1 | 100
O=C(Nc1ccc(I)cc1)c1ccccc1C(=O)c1ccccc1 | 100
CC1=C(C(=O)Nc2ccccc2)C(c2ccncc2)C(C#N)=C(S)N1 (stereo unspecified) | 100
CCC(C)SCC(=O)N1CCc2ccccc21 (stereo unspecified) | 101
O=C(CS(=O)(=O)c1c[nH]c2ccccc12)Nc1ccccc1 | 99
CC(C)(C)c1ccc(/C(N)=N/O)cc1 | 109
O[C@H](CSc1ncccn1)C(F)(F)F | 109
COc1ccccc1CNc1ccccc1C(=O)N1CCOCC1 | 94
COc1ccc(C2=NOC(C(=O)N(C)Cc3ccccc3)C2)cc1 (stereo unspecified) | 100
CCC(C)C1C(C#N)=C(N)Oc2n[nH]c(C)c21 (stereo unspecified) | 89
CCC1(CC)Cc2ccccc2C(CC(=O)N2CCOCC2)=N1 | 100
CC(NC(=O)CCn1c(=O)oc2ccccc21)c1ccccc1 (stereo unspecified) | 99
O=C(NCCSc1c(-c2ccc(Br)cc2)[nH]c2ccccc12)c1ccncc1 | 106
c1ccc(OCc2ccc(CCCN3CCOCC3)cc2)cc1 | 100
CCN1C(=O)c2cccc3c(S(=O)(=O)NCC4CCCO4)ccc1c23 (stereo unspecified) | 99
COc1ccccc1C1C=CCC1 (stereo unspecified) | 96
O=C(NC1Cc2ccccc2C1)c1ccc(Oc2cc(Cl)cc(Cl)c2)o1 | 100
c1ccc(COc2ccc(NCCc3ccncc3)cc2)cc1 | 100
CSc1cc(-c2ccccc2)[nH]c(=O)c1C#N | 112
COC(CN(C)C(=O)c1cc2c(C)nc3ccccc3c2o1)OC | 96
CC(C)Sc1nnc2sc3ccccc3n12 | 85
COCc1cc(C)nc2sc3c(nnn4c5ccccc5nc34)c12 | 99
CC(OC(=O)/C=C/c1cccs1)C(=O)Nc1cccc(C(F)(F)F)c1 (stereo unspecified) | 102
CN(C)/N=C(\N)c1ccc(Cl)cc1 | 106
COC(=O)c1c(-c2ccc(C(C)(C)C)cc2)csc1NC(=O)C1C2CCC(O2)C1C(=O)O (stereo unspecified) | 100
N#C/C(=C(/O)c1cc[n+](Cc2ccccc2)cc1)c1nc2ccccc2[nH]1 | 99
CCc1nccn1C(=O)CCCC(=O)O | 99
CCCCn1c(CCCNC(=O)c2cccs2)nc2ccccc21 | 99
Cc1cc(Cl)ccc1OCCCC(=O)Nc1ccc(S(=O)(=O)Nc2ncccn2)cc1 | 99
Cc1ccc(C(=O)c2ccccc2C(=O)OCC(=O)c2ccc(F)cc2)cc1 | 104
O=C(CSc1nnc(-c2cccnc2)n1-c1ccccc1)NCc1ccccc1 | 106
COC(=O)Cn1c(=O)sc2ccccc21 | 105
C/C(O)=C(\C#N)C(=O)Nc1cc(Br)ccc1Br | 99
Cc1ccc2c(c1)-c1cc(C)nn1C(c1cccnc1)N2 (stereo unspecified) | 98
O=C(CN1C(=O)C2C3C=CC(C3)C2C1=O)Nc1nnc(C(F)(F)F)s1 (stereo unspecified) | 102
CCn1cc(C(=O)O)c(=O)c2cc(F)c(F)cc21 | 100
CN1/C(=C/C(=S)C(C)(C)C)Sc2ccccc21 | 95
C=CCSc1nnc(-c2oc3nc(-c4ccccc4)cc(-c4ccccc4)c3c2N)n1C | 101
Cc1ccc2c(N3CC4CCC(CC4)C3)cc(C(F)(F)F)nc2c1 | 102
CCCc1nc2ccccc2n1CC | 101
O=C(CN1C(C(=O)c2ccccc2)=C(N2CCOCC2)c2ccccc2S1(=O)=O)c1ccccc1 | 100
CN(C)c1ccc(/C=C2\CCC/C(=C\c3ccccc3)C2=O)cc1 | 100
O=C(c1ccc2c(c1)sc1nc(-c3ccccc3)cn12)N1CCCC1 | 80
Cc1nn(C)c(C)c1CS(=O)(=O)c1ccccc1 | 123
C=CC[n+]1ccccc1/C=N/O | 101
COc1ccc(-c2noc(N3CCCC(C(=O)NCCc4ccc(OC)c(OC)c4)C3)n2)cc1 (stereo unspecified) | 107
O=C(CN1C(=O)c2ccccc2C1=O)c1ccc(F)cc1 | 109
CCOc1ccc(NC(=O)CSc2ncnc3ccccc23)cc1 | 101
CC(C)c1ccccc1N=Cc1ccc[nH]1 | 97
c1cnn(-c2ccc(-c3cnco3)cc2)c1 | 112
COc1ccc(NC(=O)CC2C(=O)NCCN2C(=O)c2ccc(C(C)(C)C)cc2)cc1 (stereo unspecified) | 88
C=CCNC(=O)CCN1N=C(c2ccc(C)cc2)CCC1=O | 110
C=CCNC(=S)C(=O)Nc1ccccc1 | 98
CNC(=O)CCCc1nnc2n(C)c(=O)c3sccc3n12 | 112
O=C(NC1CCCCC1)NC12CC3CC(CC(C3)C1)C2 | 99
O=C(COC(=O)c1ccco1)Nc1ccccc1 | 103
CCN(C(=O)Cn1c(=O)n2nc(CCn3nc(C)cc3C)nc2c2ccccc21)c1cccc(C)c1 | 103
COC(CNC(=O)c1csc2c1CCCC2)OC | 103
Cn1c(-c2ccccc2)cnc1NCc1ccccc1 | 110
CC(C)=CCC/C(C)=N\n1cnnc1 | 104

Other structures follow.
SMILES | Vaccinia pol inh
FC(F)(F)c1nc2ccccc2n1-c1cc(-c2ccccc2)[nH]n1 | 96
Clc1nc(N2CCCc3ccccc32)nc(N2CCCc3ccccc32)n1 | 100
CC1CC(C)CN(CCCNC(=O)Cc2c(C(=O)O)n(C)c3ccccc23)C1 (stereo unspecified) | 109
O=C(O)c1cccc(N2C(=O)/C(=C/c3ccccc3)SC2=S)c1 | 90*
c1ccc2[nH]c(-c3cscn3)nc2c1 | 95
OCCNC(=S)c1ccccc1 | 104
COC(=O)c1ccc(=O)oc1 | 99
O=C(CC(NCCc1ccccc1)C(=O)O)Nc1ccc(Cl)cc1 (stereo unspecified) | 102
O=C(O)CNC(=S)N(Cc1ccccc1)Cc1cccnc1 | 100
COC(=O)[C@H]1[C@H]2C[C@@H]3c4[nH]c5cc(OC)ccc5c4CCN3C[C@H]2C[C@@H](OC(=O)c2cc(OC)c(OC)c(OC)c2)[C@@H]1OC | 96
CCn1c(=N)n(CC(=O)c2cccs2)c2ccccc21 | 100
CCN(CC)S(=O)(=O)c1ccc(/C=C/C(=O)Nc2cccc(C)c2)cc1 | 98
CC(C)(C)c1ccc(C2CC(=O)c3cnc(N)nc3C2)cc1 (stereo unspecified) | 98
CCN1CCc2c(OCC(=O)Nc3ccccc3)cccc2C1=O | 101
CCN1CCSc2ccc(C(=O)NC3CC3)cc21 | 96

3 of these compounds, set out differently.
Structure: O=C(CC(NCCc1ccccc1)C(=O)O)Nc1ccc(Cl)cc1 (stereo unspecified)
  Vaccinia pol inh: 102
Structure: O=C(O)CNC(=S)N(Cc1ccccc1)Cc1cccnc1
  Vaccinia pol inh: 100
Structure: COC(=O)[C@H]1[C@H]2C[C@@H]3c4[nH]c5cc(OC)ccc5c4CCN3C[C@H]2C[C@@H](OC(=O)c2cc(OC)c(OC)c(OC)c2)[C@@H]1OC
  Vaccinia pol inh: 96

The list goes on.
SMILES | Vaccinia pol inh
CC(CC(=O)N(C)Cc1ccccc1)S(=O)(=O)c1ccc2c(c1)SCC(=O)N2 (stereo unspecified) | 105
COc1ccc(OC)c(-c2n(C)c3ccccc3[n+]2C)c1 | 75
CC(C)N(C(=O)N1CCN(c2ccnc3cc(Cl)ccc23)CC1)C(C)C | 110
COC(=O)c1ccc(C(=O)Nc2ccc(C(F)(F)F)cc2)nc1 | 103
Cc1cccc(C)c1OCCN1C(=O)c2ccccc2C1(O)c1ccccc1 (stereo unspecified) | 99
O=C(Cc1ccc(-n2c(=S)[nH]c3ccccc3c2=O)cc1)NCCc1ccccc1 | 96
CCOc1ccc(S(=O)(=O)NC2CC(C)(C)NC(C)(C)C2)c2ccccc12 | 96
O=C(Cn1nnc(-c2ccccc2)n1)Nc1ccccc1 | 98
CCCCC/C=C\C/C=C\CCCCCCCC(N)=O | 99
N=C1/C(=C/c2cccn2-c2ccc(Br)cc2)C(=O)N=C2SC=CN12 | 100
Cc1cc(C(F)(F)F)nn1Cc1ccc(C(=O)O)cc1 | 93
O=C1CCC(=O)N1OCC1CCCN2CCCCC12 (stereo unspecified) | 99
COc1ccccc1NC(=O)N1CCCN(Cc2ccc(F)cc2)CC1 | 110

Four entries from above, with each value named:
smiles: COC(=O)c1ccc(C(=O)Nc2ccc(C(F)(F)F)cc2)nc1
  Vaccinia pol inh = 103

smiles: COc1ccccc1NC(=O)N1CCCN(Cc2ccc(F)cc2)CC1
  Vaccinia pol inh = 110

smiles: CCCCC/C=C\C/C=C\CCCCCCCC(N)=O
  Vaccinia pol inh = 99

smiles: CC(CC(=O)N(C)Cc1ccccc1)S(=O)(=O)c1ccc2c(c1)SCC(=O)N2 (stereo unspecified)
  Vaccinia pol inh = 105

Only part of the results is shown, so the mix of outcomes need not match the whole.
